Rce1 inh: inhibitors of yeast Ras-converting enzyme. AID 2563. yeast membranes, quenched prenylated peptide cleavage fluorescence. calls only. Q03530. 0.27% of 290,000 active;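 active = fall in fluorescence gain of 50% or more versus controls, with final raw signal at or below 3038400; inconclusive = same 50% fall but final raw signal above 3038400; inactive = fall in fluorescence gain under 50%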;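 also: plate controls were neutral control wells for no effect and wells lacking membranes for full effect; tested at 10 µM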
Target sequence (Q03530 whole entry, looked up): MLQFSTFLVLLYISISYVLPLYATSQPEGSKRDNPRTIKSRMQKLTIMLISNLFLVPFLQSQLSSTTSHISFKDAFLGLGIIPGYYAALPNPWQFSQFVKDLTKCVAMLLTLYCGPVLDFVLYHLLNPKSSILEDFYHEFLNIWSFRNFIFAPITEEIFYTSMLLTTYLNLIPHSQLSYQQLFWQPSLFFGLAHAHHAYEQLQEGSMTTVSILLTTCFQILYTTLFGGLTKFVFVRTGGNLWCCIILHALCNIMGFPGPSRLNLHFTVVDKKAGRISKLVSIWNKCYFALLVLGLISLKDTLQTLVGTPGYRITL
eIF4H inh: inhibitors of RNA binding by human eIF4H. Q15056. eIF4H fluorescence polarization binding assay. inhibition, % at 35 µM. 0.94% of 290,000 active;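 active = 50% or more with normal probe brightness, or confirmed in later tests; inconclusive = above 50% with abnormal brightness, or retests that disagree; inactive = below 50% or failed in later tests; about a fifth of its hits are not listed in these tables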;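 also: calls also rest on retests at 20 µM and on dose response follow-up; 0% = protein and probe with vehicle and 100% = probe without protein; strong numbers were not always called active; many hits fall short of the cut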
Env fusion inh: blocks HIV Env-driven cell-cell fusion | inhibition, % at 12.3 µM | HeLa-JRFL Env/CEM21 cell fusion, luciferase | 1.1% of 360,000 active;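 active = mean replicate inhibition score of at least 50 and every replicate individually at or above 50; inconclusive = only one of the two criteria met; inactive = mean below 50 and not all replicates reaching 50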;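 also: 0% = plate neutral controls and 100% = maraviroc near 300 nM; one replicate is shown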
MT1-MMP act inh: inhibitors of human MT1-MMP activation; P50281; GFP/RFP ratio change, % at 20 µM; 0.061% of 360,000 active; HT1080 RFP-PRO-GFP cells, GFP/RFP ratio fluorescence, overnight; percent of plate control window, DMSO zero;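 active = GFP/RFP ratio change of at least 30% with cell ATP level not reduced by more than half and red fluorescence within 50% of control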; also: strong numbers were not always called active
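Read-out: GFP/RFP fluorescence ratio; Test system: RFP-PRO-GFP reporter HT1080 cells; Compound dosing: single-point 20 µM compound, 1% DMSO; Times: overnight compound exposure at 37 °C.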
Yeast UUG start: alters start codon recognition fidelity in yeast; S. cerevisiae UUG-firefly luciferase reporter, luminescence/redox ratio; activity score, % at 18.7 µM; AID 602363; 0.13% of 350,000 active;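 active = replicate mean at a twofold rise or more, about +100% in these data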;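 also: firefly luciferase made from a UUG start codon reports start codon fidelity; reporter light over untreated wells divided by growth signal over untreated wells; some hits fall short of that in this replicate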
PABP polyA inh: PABP-poly(A) binding inhibition; PABP-poly(A) RNA binding, fluorescence polarization; inhibition, % at 35 µM; 1% of 290,000 active; AID 2014;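 active = 50% or more with normal probe brightness, or confirmed in later tests; inconclusive = above 50% with abnormal brightness, or retests that disagree; inactive = below 50% or failed in later tests; about a fifth of its hits are not listed in these tables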;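 also: calls also rest on retests at 20 µM and on dose response follow-up; controls were probe without protein and protein plus probe with vehicle; some compounds called inactive have numbers as strong as hits; many hits fall short of the cut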
Target sequence (P11940 whole entry, looked up): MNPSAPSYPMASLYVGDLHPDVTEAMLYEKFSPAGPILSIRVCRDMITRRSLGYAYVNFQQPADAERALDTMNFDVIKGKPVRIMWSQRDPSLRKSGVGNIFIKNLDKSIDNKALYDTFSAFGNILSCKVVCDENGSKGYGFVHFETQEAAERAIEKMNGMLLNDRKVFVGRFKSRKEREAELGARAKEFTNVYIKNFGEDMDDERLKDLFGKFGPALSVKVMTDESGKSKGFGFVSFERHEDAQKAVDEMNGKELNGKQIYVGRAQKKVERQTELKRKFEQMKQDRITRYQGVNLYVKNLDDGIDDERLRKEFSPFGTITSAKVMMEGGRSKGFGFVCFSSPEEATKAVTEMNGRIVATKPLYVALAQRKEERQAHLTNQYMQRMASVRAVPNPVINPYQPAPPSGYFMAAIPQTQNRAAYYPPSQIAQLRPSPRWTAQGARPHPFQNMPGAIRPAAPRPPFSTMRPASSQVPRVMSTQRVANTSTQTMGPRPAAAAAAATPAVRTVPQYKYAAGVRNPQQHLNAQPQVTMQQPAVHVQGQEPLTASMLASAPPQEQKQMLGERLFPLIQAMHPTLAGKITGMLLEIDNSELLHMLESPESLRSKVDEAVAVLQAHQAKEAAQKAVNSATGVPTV
CSC inhib: cancer stem cell inhibition | AID 2717 | 1.1% of 300,000 active | inhibition, % at 7.5 µM | cancer stem cell-like cells viability, luminescence;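 active = mean at 75% or more and at least half the replicates too; inconclusive = mean and replicates disagree; tested in HMLE shEcad cells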;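 also: 0% = median of negative and 100% = median of positive control wells; the first replicate is given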
eIF4H inh retest: also measured in eIF4H inh; calls as there; inhibition, %; compound at 20 µM; confirmation average;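 mean of two retest wells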
PABP polyA inh retest: further read-out of PABP polyA inh, marked with its call; inhibition, %; compound at 20 µM; confirmation repeats;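 mean of two retest wells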
MT1-MMP act inh RFP: recorded beside MT1-MMP act inh, whose call it bears; RFP signal change, %; measured here: RFP expression control read;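 0 = vehicle wells; hits needed this value within 50% of zero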
* hit, by the source's call; i = inactive; ? = inconclusive; . = not tested or not shown. These rows are one share of the data, so the mix of outcomes need not match the whole.

SMILES	Rce1 inh	eIF4H inh	Env fusion inh	MT1-MMP act inh	MT1-MMP act inh RFP	Yeast UUG start	PABP polyA inh	CSC inhib	others
O=C(Cc1cccs1)NNC(=S)NC(=O)c1ccccc1	i	5	-20	9	5	.	17	-6
Cc1ccc(C(=O)OCC(=O)NN2C(=O)NC3(CCC(C)CC3)C2=O)cc1 (stereo not drawn)	i	.	-4	-2	3	-8	.	-6
Cc1nn2c(-c3ccncc3)ccnc2c1Br	i	0	-19	1	1	.	-12	-2
CC(=O)c1ccc(N2CCN(CCC#N)CC2)c(F)c1	i	-5	.	0	-1	-10	21	-6
O=C(COc1cccc2c1CCNC2=O)NC1CCCCC1	i	.	-33	0	-2	9	.	4
CN(c1ccccc1)S(=O)(=O)c1cccc(C(=O)N2CCN(c3ccccn3)CC2)c1	i	-2	.	-1	-2	-18	8	-5
CCC(=O)Nc1ccc2c(c1)C(=O)N(C)C2=O	i	-4	.	0	2	-25	-4	-8
CCOP(=O)(OCC)c1nc(-c2ccc(OC)cc2)oc1N1CCOCC1	?	-1	1	-10	-2	-2	13	-8
COC(=O)c1ccc(CN2CCCC(C(=O)Nc3cccc(-n4cnnn4)c3)C2)cc1 (stereo not drawn)	i	12	3	7	-11	-15	-9	-3
Cc1cc(C)c(C)c(S(=O)(=O)N2CCC(C(=O)N3CCN(c4ccc(F)cc4)CC3)CC2)c1C	.	.	2	4	-7	1	.	.
CCN(CC)C(=O)C(C)N1c2cccc3cccc(c23)S1(=O)=O (stereo not drawn)	.	.	6	-5	2	-16	.	.
Cc1cccc(C(=O)N2CCN(Cc3ccc4c(c3)OCO4)CC2)c1	i	-6	.	-1	0	-18	-3	-3
Cc1ccc(C)c(S(=O)(=O)NCCOC(=O)Nc2sc(=S)n(C)c2C)c1	i	-1	.	-1	-2	-6	-5	31
C=CCOc1ccccc1CNCc1cccnc1	i	-7	6	4	0	-3	-6	-13
Cn1ccnc1SCC(=O)Nc1nc2c(F)c(F)c(F)cc2s1	i	3	-14	0	-2	.	-4	0

Reprinted at random: three records from the list, in no set order.
SMILES	Rce1 inh	eIF4H inh	Env fusion inh	MT1-MMP act inh	MT1-MMP act inh RFP	Yeast UUG start	PABP polyA inh	CSC inhib	others
Cc1nn2c(-c3ccncc3)ccnc2c1Br	i	0	-19	1	1	.	-12	-2
C=CCOc1ccccc1CNCc1cccnc1	i	-7	6	4	0	-3	-6	-13
Cn1ccnc1SCC(=O)Nc1nc2c(F)c(F)c(F)cc2s1	i	3	-14	0	-2	.	-4	0

Later entries.
SMILES	Rce1 inh	eIF4H inh	Env fusion inh	MT1-MMP act inh	MT1-MMP act inh RFP	Yeast UUG start	PABP polyA inh	CSC inhib	others
NS(=O)(=O)c1ccc(NC(=S)NC(=O)C2CCCCC2)cc1	i	0	5	2	0	-9	3	33
O=C1C(Oc2ccc(Cl)cc2)C(c2ccc3c(c2)OCO3)N1CC1CCCO1 (stereo not drawn)	i	-6	-5	-4	-9	.	-8	5
COc1cccc(OC)c1C(=O)N1CCNCC1	i	-2	-20	-2	5	-8	-10	-16
Nc1nc(-c2ccco2)nc(N2CCCCC2)n1	i	0	.	3	3	-18	-7	-16
CC1=CCC(C(=O)O)C(C(=O)Nc2nc3ccc(S(C)(=O)=O)cc3s2)C1 (stereo not drawn)	i	0	9	-1	-5	0	5	-7
CCc1nc2ccccc2c(C(=O)Nc2ccc(C)cc2)c1C	i	0	4	-2	3	-14	8	4
O=C(O)C1CCN(C(=O)c2ccccc2N2C(=O)[C@@H]3Cc4c([nH]c5ccccc45)C(c4cccc(Cl)c4)N3C2=O)CC1 (stereo partly drawn)	i	-3	.	0	3	-8	-1	-6
CN(C(=O)COc1ccc(Cl)cc1Cl)c1nnc(C23CC4CC(CC(C4)C2)C3)s1	i	-3	9	-2	-3	13	-5	66
Cc1cc(C(C)(C)C)cc(C)c1COC(=O)C1CCC(=O)N1 (stereo not drawn)	i	8	.	1	0	-5	-10	-13
Cc1cc([N+](=O)[O-])c(C)cc1-c1ccc(/C=N/n2cnnc2)o1	i	-5	-10	0	2	-15	-8	-6
CCc1ccc(/C=C2/SC(=S)N(CCC(=O)Nc3ccc(C(=O)O)cc3)C2=O)cc1	i	42	.	2	1	-16	-26	-5
COc1ccccc1NC(=O)N(Cc1ccco1)Cc1cc2c(C)ccc(C)c2[nH]c1=O	i	1	.	2	4	-5	2	.
CC1CCN(C(=O)Nc2ccc3nsnc3c2)CC1	i	-3	.	0	2	-6	3	-10
Cc1ccc(C)c(NC(=O)CSc2nc3ccccc3nc2N2CCOCC2)c1	i	-3	-15	-6	-3	-12	2	-12
Cc1ccc(C(=O)Nc2ccc(S(=O)(=O)N3CCN(C)CC3)cc2)cc1	i	-8	.	3	5	-1	-4	2

Some of these compounds in order of formula weight, rising.
SMILES	Rce1 inh	eIF4H inh	Env fusion inh	MT1-MMP act inh	MT1-MMP act inh RFP	Yeast UUG start	PABP polyA inh	CSC inhib	others
CCc1nc2ccccc2c(C(=O)Nc2ccc(C)cc2)c1C	i	0	4	-2	3	-14	8	4
NS(=O)(=O)c1ccc(NC(=S)NC(=O)C2CCCCC2)cc1	i	0	5	2	0	-9	3	33
Cc1ccc(C)c(NC(=O)CSc2nc3ccccc3nc2N2CCOCC2)c1	i	-3	-15	-6	-3	-12	2	-12

Next part.
SMILES	Rce1 inh	eIF4H inh	Env fusion inh	MT1-MMP act inh	MT1-MMP act inh RFP	Yeast UUG start	PABP polyA inh	CSC inhib	others
CCOC(=O)c1cc2c(ccc3nc(C)c(C)c32)[nH]c1C	i	10	-13	7	5	13	13	6
COCCN(CC(=O)NCc1ccc(F)cc1)C(=O)CCC(=O)Nc1nccs1	i	0	.	0	3	-9	-6	-4
O=C(NCCN1CCC(Cc2ccccc2)CC1)C1CCCN(S(=O)(=O)c2cnc[nH]2)C1 (stereo not drawn)	i	-3	2	-3	3	-5	2	-4
C=CCNC(=O)/C(=C\c1ccc2c(c1)OCO2)NC(=O)c1ccc(Br)cc1	i	3	-10	4	0	-15	17	-4
CC(C)CCOc1ncnc2c1sc1nc3c(cc12)CSC(C)(C)C3	.	11	-42	-3	-1	-3	1	.
Cn1c(=O)[nH]c2c(cnn2C)c1=O	.	.	?	1	3	-14	.	.
CCCCCC1CCC(C(=O)NNC(=S)NCC)CC1 (stereo not drawn)	i	10	1	6	-4	-27	1	8
CC1CN(C)C(C)CC1OC(=O)C(c1ccccc1)c1ccccc1 (stereo not drawn)	i	.	26	-2	-2	-7	.	20
O=C1CC(N2CCN(C3CCc4ccccc4C3)CC2)C(=O)N1c1ccccc1 (stereo not drawn)	i	.	.	1	1	-18	.	-4
CC(=O)Nc1cccc(-n2nnc(SCC(=O)Nc3ccccc3)n2)c1	i	-20	-13	4	4	-8	-13	8
Cn1cc([N+](=O)[O-])c(C(=O)NC2CCCC2)n1	i	-4	-14	-2	1	-8	0	.
CCN1CCN(C(=S)c2ccc(Br)cc2)CC1	i	-5	.	4	4	-4	0	-7
CCOc1ccc(N=C2NC(=O)S/C2=C\c2ccc(O)cc2)cc1	i	-2	.	-40	-1	-10	2	13
CCCCn1c(SCC(=O)N2CCCC2)nc2cc(S(N)(=O)=O)ccc21	i	-7	0	2	0	4	-3	-6
O=C(O)c1ccc2c(=O)n3c(nc2c1)/C(=C/c1ccccc1C(F)(F)F)CCCC3	i	6	-30	-1	4	.	3	-3
COC(=O)CN1C(=S)N(c2ccc(Cl)cc2)C(=O)C1CC(=O)Nc1ccc(F)cc1 (stereo not drawn)	i	9	-2	1	-3	.	7	0
O=C(CSc1nnc(-c2c[nH]c3ccccc23)o1)c1ccc(-c2ccccc2)cc1	i	-11	-58	9	4	-13	0	-15
O=C(NCc1ccccc1)c1cnc2n(c1=O)CCS2	i	-7	-10	-2	-2	-15	-9	7
CCC1(CC)Cc2ccccc2C(N)=C1C#N	i	-3	.	3	2	1	1	1
CCn1nc(C)c(NC(=O)c2ccc(Cl)cc2)c1C	i	11	1	-3	0	.	6	-7
Cc1oc(-c2ccccc2Cl)nc1CS(=O)CC(=O)NCc1cccs1 (stereo not drawn)	i	2	-19	-2	-2	-7	6	-14
CC1CCCCC1NS(=O)(=O)c1ccc(S(=O)(=O)NCc2ccncc2)cc1 (stereo not drawn)	i	-7	.	.	.	.	3	.
O=C(O)CSCC(=O)N1CCCN(c2ccc(C(F)(F)F)cn2)CC1	i	3	-9	-1	0	-7	6	-5
COc1ccc(-c2nnc3sc(C(C)N4C(=O)c5ccccc5C4=O)nn23)cc1 (stereo not drawn)	i	13	21	-1	-2	-13	-10	-16
COCCN(CC(=O)Nc1ccccc1C)S(=O)(=O)c1ccc(S(=O)(=O)N2CCCC2)cc1	i	-3	-14	0	-6	-21	10	-17
Nc1nc2ncc(CNc3ccc(C(=O)N[C@@H](CCC(=O)O)C(=O)O)cc3)nc2c(=O)[nH]1	i	72	.	-3	4	-11	44	13	eIF4H inh retest=37;PABP polyA inh retest=49
CCOC(=O)C1CCN(c2nc3c(C)cccn3c(=O)c2/C=C(\C#N)S(=O)(=O)c2ccccc2)CC1	i	14	11	1	3	.	-18	-3
CCN(CC)S(=O)(=O)c1cc(-c2nn(C)c(=O)c3ccccc23)ccc1C	i	19	.	6	-1	7	3	-3
COc1ccccc1N(Cc1ccccc1)S(=O)(=O)c1cccc(C(=O)Nc2ccc(C)cn2)c1	i	.	42	-8	-18	-18	.	2
CC(C)[C@@H]1NC(=O)c2cc([N+](=O)[O-])cc(I)c2NCCC[C@@H](C(N)=O)NC(=O)[C@H](CO)NC1=O	.	-1	-14	.	.	.	6	-11
Fc1ccccc1OCCn1c(=S)[nH]c2ccccc21	i	4	-14	0	-3	-7	0	-5
Cc1noc(C)c1COc1ccccc1C(=O)N1CCN(S(=O)(=O)c2ccc(C(C)C)cc2)CC1	.	.	8	-2	-7	4	.	.
COc1ccc(S(=O)(=O)N2CCOC23CCN(S(=O)(=O)c2cc(C)ccc2OC)CC3)cc1	i	.	6	3	-7	-17	.	-5
O=C(NNS(=O)(=O)c1ccccc1F)c1sccc1-n1cccc1	i	5	16	-1	6	.	8	-14
CCC(C)Sc1nc2c(c(=O)[nH]c(=O)n2C)n1CCc1ccccc1 (stereo not drawn)	i	-2	.	-2	-9	-5	7	-14
O=S(=O)(c1ccc(S(=O)(=O)N2CCN(C/C=C/c3ccccc3)CC2)cc1)N1CCCC1	i	0	-59	-17	-2	3	7	4
CC(C)=CC(=O)N1CCC(N2CCC(C(=O)NCC3CCCO3)CC2)CC1 (stereo not drawn)	i	9	1	0	4	-2	7	-10
O=C(NNC(=O)c1ccc(S(=O)(=O)N2CCCCC2)cc1)c1ccccc1	i	-7	-4	4	5	-14	2	-3
COc1ccccc1NC(=S)NCCc1ccc(F)cc1	i	-1	21	2	5	.	-2	-3
COCC(=O)N1CCC(Oc2cccc(C(=O)NCc3ccccn3)c2)CC1	i	-8	29	-4	-2	-28	-3	-7
O=C(CN(C1CCCCC1)S(=O)(=O)c1ccc(F)cc1)NCc1ccncc1	i	3	.	0	6	1	-1	-5
O=C(C1CCCN(S(=O)(=O)Cc2ccccc2)C1)N1CCC(Cc2ccccc2)CC1 (stereo not drawn)	i	2	14	-4	-12	.	4	5
CCOc1ccccc1C1CC(=O)Nc2c1c(=O)n(C)c(=O)n2C (stereo not drawn)	i	-1	-8	3	0	-6	-1	-16
O=C(NC(=S)NCCN1CCOCC1)c1cccc(Cl)c1	i	3	-22	3	3	-6	-4	-10

Bioassay records as filed in PubChem BioAssay.
